Screening results from PubChem BioAssay.
Cruzain noTriton = qHTS Assay for Promiscuous and Specific Inhibitors of Cruzain (without detergent); hit rate 2.3% among 200,000; purified cruzain, Z-FR-AMC fluorescence, no detergent; Potency, µM, for inactives: max response, negative = inhibition, most hits filed as inhibitors; active means well fitted curve in the direction sought with a large enough effect; inconclusive means small, poorly fitted or top-dose-only effect, or another doubt; inactive means no such curve, though single readings can be large; an effect the other way counts as inactive or inconclusive;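 further: plate controls were enzyme without inhibitor for no effect and buffer without enzyme for full effect; nearly all actives have a fitted effect of over 40% in size; top concentration of the series not given in the record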
Target sequence (P25779 123-467 limits assumed): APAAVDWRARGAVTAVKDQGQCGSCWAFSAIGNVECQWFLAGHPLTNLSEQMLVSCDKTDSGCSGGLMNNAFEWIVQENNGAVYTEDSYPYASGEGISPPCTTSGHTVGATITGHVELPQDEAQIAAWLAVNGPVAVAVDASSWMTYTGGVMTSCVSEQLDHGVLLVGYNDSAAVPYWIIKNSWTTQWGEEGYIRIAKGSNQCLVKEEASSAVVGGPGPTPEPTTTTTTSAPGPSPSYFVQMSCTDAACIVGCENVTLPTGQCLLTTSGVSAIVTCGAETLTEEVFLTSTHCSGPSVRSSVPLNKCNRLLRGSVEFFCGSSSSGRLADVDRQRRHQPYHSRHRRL
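Detergent-free condition (0.00005% Triton X-100) in acetate buffer pH 5.5 with DTT. 1.5 nM enzyme and compound were pre-mixed 15 min, then 2 uM Z-FR-AMC substrate added; reaction progress from fluorescence change between first and third reads (60 s).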
Cruzain inh Det = qHTS Assay for Promiscuous and Specific Inhibitors of Cruzain (with detergent); Cruzipain (Trypanosoma cruzi), P25779; purified cruzain, Z-FR-AMC fluorescence, 0.01% Triton; Potency, µM, without a hit: max response, negative = inhibition, actives largely listed as inhibitors; hit rate 0.43% among 200,000; active means well fitted curve in the direction sought with a large enough effect; inconclusive means small, poorly fitted or top-dose-only effect, or another doubt; inactive means no such curve, though single readings can be large; an effect the other way counts as inactive or inconclusive;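 further: plate controls were neutral wells for no effect and buffer without enzyme for full effect; nearly all actives have a fitted effect of over 40% in size; top concentration of the series not given in the record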
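Read-out: AMC fluorescence (360 nm excitation, 450 nm emission), four reads over 2 min, first-to-third difference used. Conditions: cruzain 1.5 nM, Z-FR-AMC 2 uM, pH 5.5 acetate, 5 mM DTT, 0.01% Triton X-100.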
MARV entry inh = qHTS for inhibitors of binding or entry into cells for Marburg Virus. Marburg virus pseudotyped entry inhibition, cell reporter; control for the full effect not named in the record; about a third of the inactives were read at about 46 µM. hit rate 1.8% among 300,000. Potency, µM (doses to about 37.8 µM), for inactives: top-dose activity change, negative = inhibition, actives largely listed as inhibitors; active = well fitted inhibition curve with a large enough effect; inconclusive = small, poorly fitted or top-dose-only effect, or effect the other way; inactive = flat fitted curve, though single readings scatter; tested in HEK293 cells; about a fifth of its hits are not listed in these tables; further: on the % scale 0 is the no-effect control and ±100 the full control effect; luciferase read-out
LASV entry inh = qHTS for Inhibitors of binding or entry into cells for Lassa Virus; AID 540256, 2011; Lassa virus pseudotype entry inhibition, cell reporter; control for the full effect not named in the record; hit rate 1.2% among 300,000; Potency, µM (series often up to 37.9 µM), for inactives: top-dose activity change, negative = inhibition, actives largely listed as inhibitors; active means well fitted inhibition curve with a large enough effect; inconclusive means small, poorly fitted or top-dose-only effect, or effect the other way; inactive means flat fitted curve, though single readings scatter; tested in HEK293 cells; further: on the % scale 0 is the no-effect control and ±100 the full control effect; nearly all actives have a fitted effect of over 50% in size; luciferase read-out
RE007 growth inh = qHTS Assay for Inhibitors of the HIV-1 protein Vpr. S. pombe RE007 Vpr strain, BacTiter-Glo ATP luminescence, 24 h; control for the full effect not named in the record. hit rate 0.21% among 360,000. AID 651644, 2012. Potency, µM (top dose mostly 92.2 µM), for the others: at the top dose activity change, negative = less growth; active = well fitted falling curve with a large enough effect; inconclusive = small, poorly fitted or top-dose-only effect; inactive = no such curve, though single readings can be large or run the other way;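 further: on the % scale 0 is the no-effect control and ±100 the full control effect; nearly all actives have a fitted effect of over 50% in size; the assay follows cell death caused by Vpr and the record does not say whether a fall means rescue or toxicity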
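Fission yeast RE007 carrying one integrated HIV-1 vpr copy, seeded at OD 0.01 in PMG+AL medium with 23 nL pinned compound. Grown 24 h at 30 degrees; viability read by BacTiter-Glo luminescence after 5 min.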
SARS PLP yeast = qHTS of Yeast-based Assay for SARS-CoV PLP; S. cerevisiae expressing SARS-CoV PLpro, growth rescue; control for the full effect not named in the record; Potency, µM (doses to about 32.9 µM), without a hit: at the top dose activity, positive = growth rescue; hit rate 0.19% among 330,000; AID 485353, 2010; further: 0% is about no effect; nearly all actives have a fitted effect of over 55% in size; growth read by luminescence after 48 h
2A StopGo = High Throughput Screening for Foot and Mouth Disease Virus Antivirals; human cells with a luciferase reporter of 2A StopGo recoding; control for the full effect not named in the record; Potency, µM (series often up to 57.9 µM), without a hit: at the highest dose signal change, negative = less light; hit rate 1.2% among 410,000; active = well fitted falling curve with a large enough effect; inconclusive = small, poorly fitted or top-dose-only effect; inactive = no such curve, though single readings can be large or run the other way; tested in HEK293T cells; further: on the % scale 0 is the no-effect control and ±100 the full control effect; nearly all actives have a fitted effect of over 45% in size; luciferase light after 4 h
NS1 inh = qHTS Assay for Inhibitors of Influenza NS1 Protein Function. S. cerevisiae slowed by influenza A NS1, growth recovery by OD600. Potency, µM (titrated, usually from 46.1 µM), for the others: at the top dose activity, positive = more growth. hit rate 0.4% among 270,000. AID 2326, 2010; further: actives are rising curves; nearly all actives have a fitted effect of over 50% in size
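Recovery from NS1-induced slow growth read by OD600 in budding yeast switched to galactose assay medium (pH 6.0, -URA) at 1:100 dilution. Compound 23 nl per well; the matching strain lacking NS1 serves as control.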
Starred values were filed as active, the others as inactive; ? = inconclusive; nt = not tested or not shown; [ ] = dose if it differs, or a comment. Unless noted, the call rests on the fitted dose curve; in most records, active means well fitted rising curve with a large enough effect; inconclusive means small, poorly fitted or top-dose-only effect; inactive means no such curve, though single readings can be large or run the other way. Potency means the concentration at half of the fitted maximal effect. An unsorted share of the library; any-hit rate near 4.7%.

SMILES	Cruzain noTriton	Cruzain inh Det	MARV entry inh	LASV entry inh	RE007 growth inh	SARS PLP yeast	2A StopGo	NS1 inh
CC(=O)c1ccc(OCC(=O)N2CCCC(N3CCN(c4ccccc4C)CC3)C2)cc1 (stereo unspecified)	nt	nt	-6%	-25%	-7%	5%	0%	3%
Nc1c(Cl)cc(Cl)cc1C(=O)OCC(=O)N1CCCC1=O	nt	nt	-5%[46.1 µM]	-21%	?	4%	1%	nt
Cc1ccc(C)c(C(C)NC(=O)C2CCCO2)c1 (stereo unspecified)	nt	nt	-17%[46.1 µM]	15%[46.1 µM]	3%	-2%	2%	11%
CCOC(=O)CCc1c(C)c2ccc(OC(C)C(=O)OCC)c(C)c2oc1=O (stereo unspecified)	?	-4.5%	-11%	11%	5%	nt	-21%	-54%
Cc1ccc(C(=O)Nc2ncc(C)s2)s1	nt	nt	2.8µM*	5µM*	20%	-3%	-10%	-11%
O=C(CSC1=NCCS1)NC1CCCCC1	1%	-1.7%	-8%	19%	-13%	nt	6%	3%
Cc1cccn2c(=O)c(C(=O)NCCc3ccccc3)c(O)nc12	?	-8.0%	10%[46.1 µM]	nt	nt	nt	53%[activator]	nt
CN(C(=O)CCl)C1CCCc2ccccc21 (stereo unspecified)	nt	nt	nt	nt	29%	-1%	16µM*	-2%
CCOc1cc(/C=C2\SC(N)=NC2=O)ccc1O	nt	nt	15%[46.1 µM]	8%[46.1 µM]	20%	2%	-9%	26%
C/C(=N/OCC(=O)NCCCCCCNC(=O)CO/N=C(/C)c1cccs1)c1cccs1	12%	1.2%	?	?	-2%	23%	-18%	-6%
CC1CCN(C(=O)CSc2nc(-c3ccc(F)cc3)cc(C(F)(F)F)n2)CC1	-9%	-3.1%	16%[46.1 µM]	13%[46.1 µM]	nt	nt	-18%	nt
O=C(Nc1ccon1)Nc1ccc(Cl)cc1Cl	nt	nt	nt	nt	7%	-10%	3%	-2%
O=C(Nc1ccccc1O)c1cccc(S(=O)(=O)N2CCOCC2)c1	nt	nt	29%[46.1 µM]	10%	6%	1%	14%	-2%
O=C(NC1CCCC1)C(=O)N(Cc1cccnc1)C(C(=O)NC1CCCC1)c1ccco1 (stereo unspecified)	nt	nt	nt	nt	6%	0%	20%	0%
CN1CCC(OC(=O)c2cccc(Br)c2)CC1	-9%	4.8%	?	5%	-8%[3.69 µM]	-9%	0%	0%
O=C(Cn1nnc2ccccc2c1=O)N[C@@H](Cc1ccccc1)C(=O)O	nt	nt	?	17%[46.1 µM]	1%	-1%	-4%	-2%
COc1cccc(N/C(SCc2cccc([N+](=O)[O-])c2)=C(/C#N)C(N)=O)c1	nt	nt	?	?	5%	0%	35µM*	nt
O=C(NCCNC(=O)c1cnccn1)c1cccc(Cl)c1	nt	nt	1%[46.1 µM]	6%[46.1 µM]	8%	-1%	-9%	9%
CCC(=O)N1CCc2cc(CNS(=O)(=O)c3c(C)cc(C)cc3C)ccc21	-13%	-3.3%	nt	-12%[46.1 µM]	nt	nt	4%	nt
CC(NC(=O)/C(C#N)=C/c1cn(-c2ccccc2)nc1-c1ccc(F)cc1)c1ccccc1 (stereo unspecified)	?	-5.8%	-12%	11%	-12%	11%	0%	6%
Cc1[nH]c(=O)[nH]c(=O)c1CSc1nnc([C@@H](NC(=O)OC(C)(C)C)C(C)C)o1	0%	9.5%	?	2%	21%	-7%	12%	?
CN(C)c1ccc(P(=O)(OCc2ccccc2)C(O)c2ccncc2)cc1 (stereo unspecified)	6%	5.5%	?	-21%	23%	-4%	1%	-2%
CCCC(=O)Nc1c2c(nc3ccccc13)N(c1ccccc1)CC2	nt	nt	?	7%	17%	0%	-14%	nt
Cc1ccc(/C=C2/C(=O)NC(=O)N(CCc3ccc(F)cc3)C2=O)o1	6%	3.0%	?	-20%	-4%	?	25µM*	29%
S=C(NCc1ccccn1)Nc1ccc(Br)cc1Cl	nt	nt	1%[46.1 µM]	7%	3%	-4%	14%	-61%
CC(=O)Nc1nc(-c2ccc3c(c2)OCO3)cs1	nt	nt	nt	nt	-3%	-3%	19%	-4%
CCOc1ccccc1NC(=O)CCn1ccnc1	nt	nt	17%[46.1 µM]	20%[46.1 µM]	19%	2%	8%	-3%
Cc1ccc(OCCNc2ccc(C(F)(F)F)cc2[N+](=O)[O-])cc1	?	-8.3%	?	-5%	18%	25%	26%	7%
COc1cccc(-c2c(C(=O)N/N=C/c3ccco3)nnn2-c2nonc2N)c1	nt	nt	nt	nt	-1%	10%	-20%	7%
CCS(=O)(=O)N1CCN=C1SCc1ccccc1	nt	nt	nt	nt	-7%	-2%	-6%	3%
N=c1c(C(=O)NC2CCCCC2)cc2c(=O)n3ccccc3nc2n1Cc1ccco1	nt	nt	?	-5%[46.1 µM]	-13%	0%	-1%	2%
O=C(Nc1cccc(S(=O)(=O)Nc2ccccc2F)c1)c1ccco1	nt	nt	3%	?	17%	0%	48%[activator]	nt
COc1nccc(C(F)(F)F)c1C(=O)Nc1ccc(Cl)cc1	nt	nt	-15%[46.1 µM]	-16%	3%	0%	-17%	2%
COc1ccc(OCc2n(CC(=O)OC3CC(C)CCC3C(C)C)c3ccccc3[n+]2C)cc1 (stereo unspecified)	nt	nt	nt	nt	-9%	-6%	?	-9%
O=S1(=O)N=C(Oc2ccccc2)c2ccccc21	-3%	3.3%	?	-15%	-7%	-8%	12%	-19%
Cc1cc(C)cc(NC(=O)CSc2nccn2C2CCCC2)c1	-14%	0.1%	nt	16%[46.1 µM]	nt	nt	13%	nt
COc1cccc(NC(=S)N2CCN(S(C)(=O)=O)CC2)c1	nt	nt	?	-6%[46.1 µM]	4%	0%	0%	7%
C/C(=N\Nc1ccc2nncn2n1)c1ccc(Cl)s1	nt	nt	nt	nt	-4%	-1%	-10%	-3%
CCOc1nc(-c2ccc(Cl)cc2)nc2ccccc12	18%	-7.1%	-3%	0%	-9%	2%	-25%	6%
COc1ccc(C2CC(=O)Oc3ccc(C(C)(C)C)cc32)cc1 (stereo unspecified)	2%	-3.2%	nt	nt	9%	-4%	-18%	-9%
CSc1cccc(NC(=O)C(C)Sc2ccc(C)cc2)c1 (stereo unspecified)	-6%	-6.7%	-12%	-1%	-4%	-9%	-4%	-4%
COc1ccc(S(=O)(=O)Nc2c3ccccc3nc(=O)n2-c2ccccc2)cc1	0%	-2.0%	-2%	10%	18%	8%	21%	-7%
COc1ccc(NC(=O)CSc2n[nH]c(-c3ccncc3)n2)cc1Cl	nt	nt	-2%	?	-21%	-1%	-15%	nt
COc1cccc(OCC(O)CN2CCN(C)CC2)c1 (stereo unspecified)	nt	nt	?	22%	-14%	0%	0%	-2%
CC(C)(C)c1ccc(C(=O)NC(Cc2c[nH]c3ccccc23)C(=O)OCC(=O)c2ccc(Cl)cc2)cc1 (stereo unspecified)	25µM*	-3.8%	nt	?	nt	nt	-7%	nt
O=C(CCC1CCCCC1)Nc1cccc(C(=O)Nc2ccc(C(=O)O)cc2)c1	nt	nt	12%[46.1 µM]	25%[46.1 µM]	-9%	nt	9%	nt
Cc1ccccc1OCC(=O)NC(C)c1ccccc1 (stereo unspecified)	nt	nt	nt	nt	-8%	1%	-14%	-5%
O=C(COc1coc(CN2CCN(c3ccc(F)cc3)CC2)cc1=O)NC1CCCC1	nt	nt	-1%	-11%	-14%	5%	-27%	nt
CC(=O)NCCC1CCN(c2nc3nonc3nc2N(C)Cc2ccccc2)CC1	nt	nt	nt	nt	-5%	0%	-2%	1%
Cc1cc(S(=O)(=O)NC2CCCCC2)ccc1-n1cnnn1	nt	nt	?	-2%	-29%	1%	67%[activator]	2%
CCOc1ccc(OCCn2ccnc2)cc1	2%	3.9%	?	6%	5%	-8%	-22%	3%
N#Cc1c(-c2ccccc2)cc(-c2ccccc2)nc1SCCC(=O)O	nt	nt	?	?	5%	-7%	-3%	-40%
O=C(COc1ccccc1Cl)Nc1ccc(N2CCN(C(=O)c3ccccc3)CC2)cc1	nt	nt	nt	nt	2%	-8%	22µM*	11%
Cc1cc(=O)[nH]c(N/N=C/C(C)c2ccccc2)n1 (stereo unspecified)	nt	nt	2%[46.1 µM]	17%	4%	-1%	39%[activator]	3%
Cc1c(-c2ccccc2)c(-c2ccc(OCCN(C)C)cc2)n2ccccc12	nt	nt	?	?	-9%	nt	-2%	nt
CCCN(Cc1cccs1)C(=O)Nc1ccccc1C	-13%	-11%	?	2%[46.1 µM]	nt	nt	-2%	nt
COc1ccc(C2SCC(=O)N2Cc2ccccc2)cc1 (stereo unspecified)	nt	nt	nt	nt	24%	-2%	-16%	-5%
Cc1cccc(NC(=O)c2cc3c([nH]c4ccccc43)c(C)n2)c1C	?	0.2%	-2%	-14%	4%	16%	-3%	-1%
Cc1cc(C)cc(OCC(O)CN2CCC(CN3C(=O)c4cccc5cccc(c45)C3=O)CC2)c1 (stereo unspecified)	7%	2.2%	-1%	nt	3%	8%	?	20%
Cc1cc(C(=O)Nc2c(C)nn(Cc3ccc(F)cc3)c2C)on1	-3%	4.0%	nt	nt	3%	11%	-8%	13%

(listing goes on)
SMILES	Cruzain noTriton	Cruzain inh Det	MARV entry inh	LASV entry inh	RE007 growth inh	SARS PLP yeast	2A StopGo	NS1 inh
Cc1oc2c(c(C)cc3oc(=O)c(CC(=O)NCCCO)c(C)c32)c1C	nt	nt	nt	nt	0%	0%	-10%	-1%
NS(=O)(=O)c1ccc(CCNC(=O)C(=O)c2cn(CC(=O)N3CCCC3)c3ccccc23)cc1	nt	nt	7%[46.1 µM]	16%[46.1 µM]	-7%	2%	-4%	0%
CCCCCOC(=O)C1C2C=CC3(CN(c4ccccc4C)C(=O)C13)O2 (stereo unspecified)	-2%	-22%	-2%	1%	1%	1%	-19%	7%
Cn1c(=O)[nH]c(=O)c2c1nc(SCC(O)CO)n2CCCc1ccccc1 (stereo unspecified)	nt	nt	nt	nt	2%	1%	7%	11%
CC(=O)CCc1ccc(OCCCCn2cncn2)cc1	-15%	2.0%	12%[46.1 µM]	?	2%	-2%	14%	-3%
